Compound activity deposited in PubChem by National Center for Advancing Translational Sciences (NCATS).
GLA inh pH 4.5 = alpha-galactosidase A (human) inhibition, pH 4.5 | P06280 | purified enzyme, 4-MU-alpha-Gal fluorescence, pH 4.5 | AID 1467 | activity change, negative = inhibition, % at 105 µM | 230,000 tested, under 10 active; inconclusive = small, poorly fitted or top-dose-only inhibition, or a rising curve; inactive = flat fitted curve, though single readings scatter; no compound was filed as active;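 also: 0% = full activity with enzyme and -100% = basal without enzyme; dose as in the result columns while the protocol names 77 µM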
Target sequence (P06280 whole entry, looked up): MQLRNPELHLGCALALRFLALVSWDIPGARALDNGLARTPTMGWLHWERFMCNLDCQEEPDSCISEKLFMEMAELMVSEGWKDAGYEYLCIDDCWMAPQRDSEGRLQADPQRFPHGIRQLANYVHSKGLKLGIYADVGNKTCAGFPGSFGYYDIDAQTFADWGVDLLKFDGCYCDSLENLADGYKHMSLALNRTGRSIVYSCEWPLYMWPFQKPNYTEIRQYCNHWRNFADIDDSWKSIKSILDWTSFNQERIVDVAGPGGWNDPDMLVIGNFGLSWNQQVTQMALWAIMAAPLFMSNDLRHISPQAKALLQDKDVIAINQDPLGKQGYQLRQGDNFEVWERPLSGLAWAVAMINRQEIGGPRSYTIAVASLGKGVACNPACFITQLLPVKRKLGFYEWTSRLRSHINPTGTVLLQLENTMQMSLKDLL
Rango dissoc inh = inhibition of RanGTP-driven Rango-importin beta dissociation; O95149+P62826; Biochemical FRET Rango-importin beta, RanGTP-induced dissociation; Potency, µM (titrated, usually from 46.1 µM), without a hit: top-dose activity change, negative = inhibition; 340,000 compounds, 0.071% hits; AID 540253; active means falling FRET ratio curve, often poorly fitted, with flat reads before Ran was added; inconclusive means other falling curves, or compound fluorescence or quenching; inactive means flat or rising ratio curve;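 also: potency is read from the fitted curve at half-maximal effect; % of control where 0% means no effect; nearly all actives have a fitted effect of over 45% in size; -100% = wells without RanGTP and RCC1; the record marks most hits as doubtful in a second field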
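Rango (0.1 uM)–importin beta (0.25 uM) complex; RanGTP-RCC1 trigger; 45 min RT; CFP/YFP FRET read.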
miR-21 FLuc = raises the signal of a miR-21 reporter. HeLa miR-21 FLuc reporter, luciferase, 48 h. Potency, µM (doses to about 38.3 µM), for the others: at the top dose reporter change, positive = more light. 340,000 tested, under 10 active; active = well fitted rising curve with a large enough effect; inconclusive = small, poorly fitted or top-dose-only effect; inactive = no such curve, though single readings can be large or run the other way;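 also: % of control where 0% means no effect; miR-21 action dims this reporter so a rising signal means less miR-21 action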
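HeLa cells stably expressing CMV-driven firefly luciferase with a downstream miR-21 binding sequence, endogenously expressing miR-21, were treated with titrations (up to about 40uM final) for 48 hours at 37 degree Celsius. Luciferase luminescence was read after lysis.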
Rango-impB inh = Rango-importin beta binding inhibition. 340,000 compounds, 0.031% hits. Potency, µM (highest dose often 92.2 µM), for inactives: at the highest dose inhibition of complex formation. Rango CFP/YFP FRET sensor + importin beta, 45 min. Q14974; active = rising FRET ratio curve, often small or poorly fitted; inconclusive = mostly compound fluorescence or quenching in the first reads; inactive = flat curves in all reads;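 also: potency is read from the fitted curve at half-maximal effect; 0% = DMSO wells and 100% = buffer wells lacking importin beta; nearly all actives have a fitted effect of over 15% in size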
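FRET biosensor (snurportin 1 IBB flanked by EYFP and cerulean), 50 nM, with compound 5 min, then 0.125 microM importin beta in PBS, 1 mM DTT, 0.02% Tween-20, 0.1% BSA. CFP/YFP ratio read after 45 min at room temperature; pre-read flags interference.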
Active calls of the source: *; ? = inconclusive; nt = no result given; [ ] = dose if it differs, or a comment. These rows are one share of the data. The share of hits here may be higher or lower than overall.

SMILES	GLA inh pH 4.5	Rango dissoc inh	miR-21 FLuc	Rango-impB inh
CC(C)(C)c1ccc(CS(=O)(=O)CC(O)CN2CCCC2=O)cc1 (centres undefined)	nt	20%	-5%	8.4%
Nc1c2c(nc3c1CCC3)CCCC2	3	nt	-5%	nt
CSc1ccc(/C=N/S(=O)(=O)c2ccccc2)cc1	nt	-11%	2%	-0.6%
CC1(C)Cc2ccccc2C(N/N=C/c2ccc([N+](=O)[O-])cc2)=N1	-13[21.1 µM]	4%	-2%	-1.7%
COc1cccc(N2CC(C(=O)Nc3nnc(SCC(=O)Nc4cc(C)on4)s3)CC2=O)c1 (centres undefined)	2	2%	-2%	0.3%
O=C(OCC(=O)N1CCN(c2ccccc2)CC1)c1ccc2ccccc2n1	5	1%	8%	0.8%
CN(CC(=O)Nc1ccc(Cl)c(C(F)(F)F)c1)C(=O)C1CCC1	nt	-5%	nt	-2.6%
Brc1cccc(CN2CCN(c3ncccn3)CC2)c1	nt	-8%	5%	-1.5%
O=C1CSC(=S)N1N=Cc1ccccc1O	nt	-18%	nt	?
O=C(NCCCn1ccnc1)C(=O)NCC1OCCN1S(=O)(=O)c1ccc(F)cc1 (centres undefined)	-1	-9%	-5%	0.1%
CC1(C)CC(=NOC(=O)c2ccccc2)CC(C)(C)N1O	-3	1%	-4%	0.1%
Cn1c(CCCNC(=O)c2ccco2)nc2ccccc21	nt	2%	nt	-4.5%
Cc1ccc(/C=N/N2CCN(c3ccccc3)CC2)cc1	-2	-8%	-36%	1.6%
COCCn1ccc2c(OCC(=O)NCCc3ccccc3)cccc2c1=O	nt	1%	nt	0.0%
N#Cc1nc(COc2ccccc2Cl)oc1NCc1ccc(F)cc1	-7	?	-6%	-4.4%
O=C(CCn1nnc2ccccc2c1=O)N[C@H](C(=O)O)c1ccccc1	2	-2%	-2%	-3.4%
CCOC(=O)c1c(Nc2ccccc2OCCOC)n[nH]c1C	-3	-7%	0%	2.0%
CCc1ccc2c(Cl)c(C(=O)N/N=C/c3c[nH]c4ccccc34)sc2c1	-3	?	-12%	?
O=c1sc2ccccc2c(N2CCCC2)c1[N+](=O)[O-]	11	-1%	0%	-0.5%
Cc1ccc(S(=O)(=O)CCSc2n[nH]c(=O)n2-c2ccc3c(c2)OCCO3)cc1	1	-14%	7%	-0.7%

Complete entries, quoted from the list. Values in the order: GLA inh pH 4.5 | Rango dissoc inh | miR-21 FLuc | Rango-impB inh
Record of CC(C)(C)c1ccc(CS(=O)(=O)CC(O)CN2CCCC2=O)cc1 (centres undefined) = nt | 20% | -5% | 8.4%
Record of Cn1c(CCCNC(=O)c2ccco2)nc2ccccc21 = nt | 2% | nt | -4.5%

The listing picks up, starting seven compounds before the break.
SMILES	GLA inh pH 4.5	Rango dissoc inh	miR-21 FLuc	Rango-impB inh
COCCn1ccc2c(OCC(=O)NCCc3ccccc3)cccc2c1=O	nt	1%	nt	0.0%
N#Cc1nc(COc2ccccc2Cl)oc1NCc1ccc(F)cc1	-7	?	-6%	-4.4%
O=C(CCn1nnc2ccccc2c1=O)N[C@H](C(=O)O)c1ccccc1	2	-2%	-2%	-3.4%
CCOC(=O)c1c(Nc2ccccc2OCCOC)n[nH]c1C	-3	-7%	0%	2.0%
CCc1ccc2c(Cl)c(C(=O)N/N=C/c3c[nH]c4ccccc34)sc2c1	-3	?	-12%	?
O=c1sc2ccccc2c(N2CCCC2)c1[N+](=O)[O-]	11	-1%	0%	-0.5%
Cc1ccc(S(=O)(=O)CCSc2n[nH]c(=O)n2-c2ccc3c(c2)OCCO3)cc1	1	-14%	7%	-0.7%
O=C(CNC(=S)N(CCCN1CCOCC1)Cc1cccs1)N1CCCC1	1	-2%	-1%	3.3%
CCOC(=O)NC(NCc1ccccc1Cl)(C(F)(F)F)C(F)(F)F	5	5%	-2%	-0.1%
COc1ccc(-c2cc(C(F)(F)F)nc(SCC(=O)Nc3cc(C)on3)n2)cc1	2	15%	0%	-0.7%
O=C(c1cccc(F)c1)N1CCN(S(=O)(=O)c2ccccc2)CC1	6	-3%	-1%	-1.4%
COc1cc(C(=S)N2CCOCC2)ccc1OC(=O)c1cc([N+](=O)[O-])cc([N+](=O)[O-])c1	6	1%	1%	1.1%
Cc1ccc(Nc2nc(-c3cccs3)cs2)nc1	3	-8%	22%	4.8%
CCc1ccc(CC2S/C(=C(\C#N)C(C)=O)NC2=O)cc1 (centres undefined)	-1	-1%	18%	6.8%
COCc1c(C(=O)N2CCN(CCOc3ccccc3)CC2)oc2ccccc12	nt	49%	nt	-0.8%
O=S(=O)(NCc1ccco1)c1cnc(Cl)c(Cl)c1	7	1%	-5%	3.2%
O=S(=O)(NC1CCCCC1Sc1ncccn1)c1ccccc1 (centres undefined)	-6	-6%	-10%	-5.7%
O=C(CCN1CCCCC1)Nn1c(=S)[nH]c2ccccc2c1=O	-6	7%	-4%	-3.4%
O=[N+]([O-])c1ccc(OCCOCCOc2ccc([N+](=O)[O-])cc2)cc1	6	19%	1%	-2.4%
O=C(Nc1cccc(NC(=O)c2ccc(-c3ccc(Br)cc3)o2)c1)c1ccccc1	5	-7%	-3%	-0.7%
CCOCCCN(CCC#N)C(=O)C1CCN(S(=O)(=O)c2ccc(-n3cnnn3)cc2)CC1	nt	-4%	1%	-1.2%
COc1ccccc1-n1c(SCC(=O)N2CCCCC2)nc(O)c(Cc2ccccc2)c1=O	nt	-14%	-4%	1.9%
C/C(=N\NC(=O)CCCNc1ccc(C)cc1)c1ccccn1	3	5%	3%	1.0%
COc1ccc(C2(CNS(=O)(=O)c3ccc(C)cc3)CCOCC2)cc1	-5	0%	-2%	-0.9%
O=C(NCCSc1ccccc1)c1cccnc1	7	15%	-42%	?
CN(CC(=O)Nc1ccc(Cl)c(C(F)(F)F)c1)C(=O)c1ccc(S(=O)(=O)N2CCOCC2)cc1	nt	?	nt	-0.1%
CCN(CC)CC(O)CNc1ccnc2c(Cl)ccc(Cl)c12 (centres undefined)	nt	51%	nt	-0.3%
CN(C)/N=C/C=C1\CCC/C(=C\c2ccc(F)c(F)c2)C1=O	-3	-5%	?	-1.9%
Cn1c(=NC(=O)c2ccccc2[N+](=O)[O-])sc2cc(S(C)(=O)=O)ccc21	2	0%	-68%	-3.0%
Cc1ccc(C(=O)NNC(=O)CCCCC(=O)NNC(=O)c2ccc(C)cc2)cc1	nt	-29%	1%	-1.8%
Cc1ccc(Nc2cc(=O)oc3ccccc23)c(C)c1	4	2%	7%	1.4%
O=C(OCc1c(-c2ccccc2)ncc2ccccc12)c1ccc(Br)cc1	nt	3%	nt	-0.7%
CC1C(=O)N2CCCc3cc(S(=O)(=O)NCc4ccc(Cl)cc4)cc1c32 (centres undefined)	nt	-3%	9%	-0.3%
Cn1cc(C(=O)c2cccc(Cl)c2Cl)cc1C(=O)O	-2	18%	0%	0.3%
O=C(Nc1nccs1)c1cc2sccc2n1Cc1ccc(F)cc1	-16	16%	-19%	4.9%
Cc1cccc(NC(=O)N2CCC(C(=O)c3ccc(F)cc3)CC2)c1	nt	14%	-7%	5.0%
CC(C)CC(=O)NC(=S)NCCc1ccccc1	-11	-1%	-18%	3.9%
Cc1ccc(NC(=O)COC(=O)C2COc3ccccc3O2)cc1S(=O)(=O)N1CCOCC1 (centres undefined)	-2	0%	-1%	-3.3%
COc1cccc(NC(=O)CN(C)C(=O)Cn2[nH]c(=O)c3ccccc3c2=O)c1	nt	-7%	nt	0.0%
CC(/C=C1\SC(=S)N(c2ccc(C(=O)O)cc2)C1=O)=C\c1ccccc1	-14	-14%	-1%	5.9%
CC(=O)N1CCN(c2ccc(Nc3ncnc4c3oc3ccccc34)cc2)CC1	-1	1%	?	-1.0%
O=C(Nc1cccc(-n2cnnn2)c1)c1ccc(Cl)cc1Cl	nt	7%	-4%	4.8%
Cc1cccc(NC(=O)c2ccc(OCc3c(C)noc3C)cc2)n1	nt	12%	nt	0.5%
Cc1cc([N+](=O)[O-])ccc1NC(=O)c1cccc(NC(=O)C(C)C)c1	-3	14%	-50%	0.1%
Cn1nc([N+](=O)[O-])nc1Sc1nnnn1-c1ccc(C(=O)O)cc1	10	9%	0%	-0.5%
CCOc1c(OC(C)=O)ccc(/C=C/c2ccc3cccc(OC)c3n2)c1[N+](=O)[O-]	-21	-2%	-32%	-3.5%
Cc1ccc(/C=N/N2CCN(Cc3ccc(Cl)cc3)CC2)o1	-8	-9%	9%	1.6%
CCc1nnc(NC(=O)CC23CC4CC(CC(C4)C2)C3)s1	nt	16%	-4%	1.1%
CCOc1ccc(NC(=O)COc2ccc(C(=O)NC(C)c3ccc(S(N)(=O)=O)cc3)cc2OC)cc1 (centres undefined)	nt	-1%	nt	4.9%
N#Cc1ccc(NC(=O)Nc2ccc(Cl)cc2)cc1	-3	10%	15%	-0.6%
O=C(CCc1ccccc1)Nc1ccc(Cl)cn1	-4	8%	-6%	3.7%
CC1CCCCC1NC(=O)c1nn(C)c2c1CS(=O)(=O)c1ccccc1-2 (centres undefined)	nt	-5%	-1%	-1.2%
Cc1cc2nc(-c3ccc(SCC(=O)N4CCN(C(=O)c5ccco5)CC4)nc3)[nH]c2cc1C	-10	2%	27%	0.1%
Cc1cnc(=O)[nH]c1SCc1ccc([N+](=O)[O-])cc1	nt	1%	-4%	-2.0%
Cc1ccc(/C=N/NC(=O)c2cc(-c3ccccc3)nc3ccccc23)o1	nt	-6%	14%	3.2%
O=C(C1CCCN1S(=O)(=O)c1cccc2cccnc12)N1CCn2c1nc1ccccc12 (centres undefined)	1	3%	-10%	?
COCCN(C(=O)COC(=O)/C=C/c1cccc(OC)c1)c1c(N)n(CC(C)C)c(=O)[nH]c1=O	nt	-1%	nt	-3.8%
CC(=O)c1cccc(NC(=O)C2CCN(S(=O)(=O)c3ccc(C)cc3)CC2)c1	-1	-11%	-6%	-4.3%
Cc1ccc2nc3c(cc2c1)c(NC(=O)C(C)(C)C)nn3CC(C)C	nt	13%	1%	4.3%
CCOC(=O)c1c(NC(=O)OC)sc2c1CCC2	-10	-1%	-7%	0.0%
CCNS(=O)(=O)c1ccc(CCC(=O)Nc2ccc(C(=O)OC)cc2)cc1	-3	-10%	-4%	-3.6%
Cc1ccc(N2CCCCn3c2nc2c3c(=O)[nH]c(=O)n2C)cc1	4	-2%	-13%	-0.2%
CCCNC(=S)N1CCN(C)CC1	-7	1%	-10%	4.7%
Cc1ccc(S(=O)(=O)NC(C(=O)N2CCOCCOCCOCC2)c2ccccc2)cc1 (centres undefined)	5	1%	-2%	-1.0%
COc1ccccc1-c1cc(C(F)(F)F)nc(N2CCN(c3ccccc3)CC2)n1	3	-4%	-2%	0.2%
COc1ccc(Cl)cc1N(CC(=O)N(C)C)S(=O)(=O)c1ccc(C)c([N+](=O)[O-])c1	-4	18%	-4%	?
COCCNC(=S)Nc1ccccc1[N+](=O)[O-]	-1	10%	0%	1.6%

(more compounds)
SMILES	GLA inh pH 4.5	Rango dissoc inh	miR-21 FLuc	Rango-impB inh
COc1ccc(CNC(=O)COC(=O)c2ccc(OCc3c(C)noc3C)cc2)cc1OC	5	1%	-2%	1.6%
CCN(CC)S(=O)(=O)c1ccc(N2CCOCC2)c(NC(=S)NC(=O)c2ccco2)c1	1	?	8%	?
O=C(Nc1ccccc1N1CCCC1)c1cccnc1Cl	-21	?	1%	-0.1%
COc1ccc(-n2nnnc2SC(C)C(=O)NC2CCCC2)cc1 (centres undefined)	nt	-1%	nt	4.5%
O=C(NCCN1CCCCC1)c1ccc2c(c1)OCCO2	1	-15%	-24%	3.5%
CNC[C@@H](Cc1ccccc1)NC[C@@H](CC1CCCCC1)NCCCc1ccccc1	nt	1%	?	?
CN(C)S(=O)(=O)c1ccc(C(=O)NCCOc2ccc(F)cc2)cc1	8	0%	-45%	0.1%
Cc1nnc(NC(=O)CSc2nc(C(C)C)nc3sc(C)c(C)c23)s1	-8	-5%	0%	-0.3%
N#Cc1ccc(CSc2nnc3[nH]c(=O)cc(N)n23)cc1	-1	0%	-19%	1.7%
